From PubChem
NPYLR7 ag: agonists of mosquito NPYLR7 receptor, primary screen, cell-based, Aedes aegypti, calcium fluorescence, mosquito biting behavior | Aedes aegypti neuropeptide Y-like receptor 7 (NPYLR7) | HEK293T NPYLR7/Galpha15, GCaMP6s calcium fluorescence | activation, % at 10 µM | 270,000 tested, 0.15% active; in the data active = activation above about 40%;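 note: 0% = vehicle and 100% = reference agonist at the receptor; some compounds past the cut are filed as inactive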
NPYLR7 ag max-min: further read-out of NPYLR7 ag, marked with its call; activation, %; measured here: Max-Min RFU normalised activation; some inactives read as strong as hits;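 span of the calcium signal over five minutes; 0% = vehicle and 100% = native peptide agonist; compound fluorescence can raise it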
An asterisk follows results filed as active; & = joins results of further samples.

SMILES | NPYLR7 ag | NPYLR7 ag max-min
CCC(Sc1ncnc2c1nnn2-c1ccc(F)cc1)C(=O)OC (centres undefined) | 14 | 17
CN(CCc1ccccn1)C(=S)NCc1ccc(F)cc1 | 1 | -1
Cc1cn2c(nc3c2c(=O)n(Cc2ccc(Cl)cc2)c(=O)n3C)[nH]1 | 4 | 0
CC(=O)Nc1cccc(-c2cncc(C(=O)N3CCCCC3)n2)c1 | -4 | -7
CN(C)S(=O)(=O)N1CCN(Cc2ncc(Cl)n2C)CC1 | 4 | 3
CCN(CC)c1nc(C#N)nc(N(CC)CC)n1 | 3 | 0
CCCOc1ccc(C(=O)Nc2cc(-c3nc4ccccc4o3)ccc2C)cc1 | 5 | 10
Cc1noc(C)c1CNC(=O)C1CCCCN1CC(C)C (centres undefined) | 12 | 8
Cc1cccc(NC(=O)CSc2nnc(CNC(=O)c3ccco3)n2-c2cc(C)ccc2C)c1 | -4 | -9
COc1cc2ccccc2cc1C(=O)Nc1ccc(-c2nc3ccccc3o2)cc1 | -8 | -9
CCOC(=O)c1c(C)[nH]c(C(=O)CN2C(=O)NC3(CCC(C)CC3)C2=O)c1C (centres undefined) | 1 | -3
CCOC(=O)c1ccc(N=c2scc(-c3ccc(OC)cc3)n2CC(C)CC)cc1 (centres undefined) | -7 | -12
COCCNC(=O)c1coc(CN(Cc2ccc3c(c2)OCO3)Cc2cccc(Cl)c2Cl)n1 | -7 | 3
CCCC(O)CN(CCN1CCOCC1)Cc1ccsc1 (centres undefined) | 22 | 32
S=c1nc(-c2ccc(Br)cc2)[nH][nH]1 | 7 | 4
CC(C)NC(=O)COC(=O)c1cc(Br)cn1C(C)C | 3 | 4
O=C(NCc1ccc(Cl)s1)c1cccs1 | 0 | -2
Cn1cccc1C(=O)Nn1c(-c2ccc3c(c2)CCC(=O)N3)csc1=Nc1ccccc1 | -4 | -10
CCOC(=O)c1ccccc1NC(=O)Cn1cccc(-c2nc(-c3ccc(Cl)cc3)no2)c1=O | 0 | -5
Cc1ccc(CN(Cc2ccc3c(c2)OCO3)CC(O)Cc2ccccc2)s1 (centres undefined) | 2 | 16
CCN(CC)S(=O)(=O)c1ccc(Cn2c(=S)[nH]c3ccccc3c2=O)s1 | 2 | 1
CC(C)NC(=O)Cn1c(=O)n(-c2ccccc2)c(=O)c2oc3ccccc3c21 | -4 | -6
COCCNC(=O)C(NC(=O)c1ccccc1Cl)C1CCN(C(=O)Nc2cccc(Cl)c2)CC1 (centres undefined) | -1 | -2
CC(=O)c1ccc(-c2c(C)cc(C)cc2C)nc1 | 5 | 2
Cc1[nH]n(-c2nc(-c3cccc([N+](=O)[O-])c3)cs2)c(=O)c1N=Nc1ccccc1[N+](=O)[O-] | 6 | 7
Cc1ccc(-c2cc(O)c3c(c2)CN(C(=O)CN2CCOC2=O)CCO3)s1 | 12 | 5
CC1(C)CCN(C(=O)NCCc2nccn2Cc2ccccc2)C1 | -2 | -3
COc1ccccc1N1C(=O)CC(SC(N)=N/N=C(/C)c2ccc(O)cc2)C1=O (centres undefined) | -12 | -19
CC(C)N(CC(N)=O)C(=O)c1cc2ccccc2o1 | -5 | -5
CCN(CC)C(=O)c1ccc(O)c(OC)c1 | 0&0 | -3&-15
CSc1ccc(CN2C(=O)C(C)Sc3ccccc32)cc1 (centres undefined) | 6 | 4
CC(C)C(=O)N1c2ccccc2N=C2CC(c3ccccc3)CC(=O)C2C1c1ccc(F)cc1 (centres undefined) | -9 | -9
CCN(CC1CCN(CCc2ccccc2C)CC1)C(=O)c1cc(C)oc1C | -3 | -3
CC1(C(=O)NCc2ccc3c(c2)OCO3)CCN1CCCc1ccccc1 (centres undefined) | 3 | -2
CCOC(=O)c1ccc(N=c2scc(-c3ccc4c(c3)CCC(=O)N4)n2NC(=O)c2cccn2C)cc1 | 18 | 13
Cc1nn(-c2cc(F)ccc2F)c(C)c1CCC(=O)NCCn1c([N+](=O)[O-])cnc1C | 24 | 20
O=C(COC(=O)c1ccco1)Nc1ccc2ccccc2c1 | 5 | 1
CCN(Cc1nc2cc(Cl)ccc2c(=O)[nH]1)C(=O)COc1c(C)cc(Cl)cc1C | 10 | 15
O=C(Oc1ccc(Cl)cc1)c1ccc(S(=O)(=O)N2CCCCCC2)cc1 | 13 | 12
Cc1cc(C)n(-c2ccc(N3CCN(C(=O)c4ccc(C(C)(C)C)cc4)CC3)nn2)n1 | -8 | -13
O=c1c(N=Nc2ccccc2Br)c(-c2ccccc2)[nH]n1-c1nc(-c2ccccc2)cs1 | 13 | 10
COCCC(=O)N(CCC#N)c1ccc2c(c1)OCCO2 | 4 | 3
C=CCNc1ccccc1C(=O)N1Cc2ccccc2CC1C(N)=O (centres undefined) | 17 | 12
Cc1nn(CC(=O)NC(=O)NC2CCCCC2C)c(C)c1[N+](=O)[O-] (centres undefined) | 2 | 7
CC(=O)O[C@H]1[C@@H](CN(C)C(=O)c2cc3ccccc3s2)[C@H]2O[C@@H]1c1ccccc12 | -3 | 6
O=C(NCCn1nc(-c2ccccc2)ccc1=O)Nc1ccc2c(c1)OCO2 | -5 | -5
O=C(COc1c(F)c(F)c(F)c(F)c1F)N1CCN(c2nccc(-c3ccc4c(c3)OCO4)n2)CC1 | 7 | 4
O=C(NN1S(=O)(=O)c2ccccc2S1(=O)=O)C(O)c1ccccc1 (centres undefined) | -8 | -9
CC(=O)N1Cc2ccccc2C[C@H]1C(=O)NCc1ccnn1C | 9 | 7
O=C(c1ccc(Cn2ccnc2)o1)N1CCC2(CCNCC2)CC1 | 1 | 2

Structural class, the entries above containing a furan ring, fused or not.
SMILES | NPYLR7 ag | NPYLR7 ag max-min
Cc1cccc(NC(=O)CSc2nnc(CNC(=O)c3ccco3)n2-c2cc(C)ccc2C)c1 | -4 | -9
CC(C)NC(=O)Cn1c(=O)n(-c2ccccc2)c(=O)c2oc3ccccc3c21 | -4 | -6
CC(C)N(CC(N)=O)C(=O)c1cc2ccccc2o1 | -5 | -5
CCN(CC1CCN(CCc2ccccc2C)CC1)C(=O)c1cc(C)oc1C | -3 | -3
O=C(COC(=O)c1ccco1)Nc1ccc2ccccc2c1 | 5 | 1
O=C(c1ccc(Cn2ccnc2)o1)N1CCC2(CCNCC2)CC1 | 1 | 2

Next structures.
SMILES | NPYLR7 ag | NPYLR7 ag max-min
COc1cccc(C2c3cccn3CCCN2Cc2ccccc2F)c1 (centres undefined) | 10 | 15
CCc1ccc(-n2ccc3nc(N4CCc5ccccc5C4)ncc3c2=O)cc1 | 1 | 5
C=CCCC(O)CN(Cc1nc2sc3c(c2c(=O)[nH]1)CCN(Cc1ccccc1)C3)Cc1ccco1 (centres undefined) | 31 | 38
CC(C)S(=O)(=O)Nc1ccc2c(c1)C(=O)Nc1ccccc1O2 | 5 | 3
Cc1nc(C)c(-c2ccc(SCC(=O)Nc3cccc(Cl)c3)nn2)s1 | -5 | -11
Cc1noc(C)c1CS(=O)(=O)c1nccn1C1CC1 | 8 | 7
CCCCCCC(=O)Nc1c(-c2ccc(OC)cc2)nc2ccc(C)cn12 | -1 | 1
Cc1ccc(O)c(C(=O)c2coc(=N)c(C(=O)Nc3c(C)cccc3C)c2)c1 | 8 | 7
CCOC(=O)c1nc2ccccc2nc1N1CCCN(S(=O)(=O)c2cccc(C(F)(F)F)c2)CC1 | 5 | 1
CCN(CC)S(=O)(=O)c1ccc2[nH]c(=O)cc(C(=O)N3CCN(C(C)C)CC3)c2c1 | 8 | 5
CCOC(=O)C1CCCN(C(=O)c2nn(-c3ccc(Cl)cc3)c(=O)n(Cc3cccnc3)c2=O)C1 (centres undefined) | 2 | 12
COc1cc(NC(=O)N2CCc3nc(Cc4ccccc4F)[nH]c(=O)c3C2)cc(OC)c1 | 4 | 2
Cc1nc2ccc(Cl)cn2c(=O)c1NC(=O)c1cccc(C(F)(F)F)c1 | 2 | 0
COc1ccc2nc(-c3ccc(F)c(NC(=O)Nc4ccccc4)c3)cn2n1 | 10 | 6
COC(=O)C(c1ccccc1F)N1CCOCC1 (centres undefined) | 6 | 2
O=C(/C=C\c1ccccc1)NCC1CN(c2ccccc2)C(=O)O1 (centres undefined) | 2 | 3
Cc1ccccc1N1CCCN(Cc2nc[nH]c2C)CC1 | -4 | 8
COc1cccc(-c2nn(CN3CCc4sccc4C3)c(=S)n2C)c1 | -3 | -7
Cc1nc(-n2nc(C3CC3)cc2NC(=O)c2cc3ccccc3o2)[nH]c(=O)c1C | 2 | -1
COc1cccc(Cn2c(C(=O)N3CCN(C(=O)Nc4ccccc4F)C(C)C3)cc3ccsc32)c1 (centres undefined) | -3 | -1
Cc1ccccc1Oc1cc(Cl)ncn1 | 16 | 15
Cc1ccc(-n2nnc3c(=O)n(CC(=O)Nc4ccc(C(N)=O)cc4)cnc32)cc1C | -5 | -9
Cn1c(=O)n(C)c2cc(CNc3nccc(N4CCCC(O)C4)n3)ccc21 (centres undefined) | -5 | -9
CCOC1(c2ccccc2)CC(c2ccccc2)C2(O1)C(=O)c1ccccc1C2=O (centres undefined) | 3 | 0
CCC(O)CN(CCOC)Cc1cccn1Cc1ccc(C(C)(C)C)cc1 (centres undefined) | 4 | 15
Cc1cc(S(=O)(=O)NCc2ccc3c(c2)OCO3)c(C)cc1Cl | 7 | 3
C=CCNC(=O)CCN1C(=O)c2ccccc2C1=O | 4 | 1
CC(C)Oc1nc(-c2cccc(F)c2)n(-c2ccc(NC(=O)Cc3cccs3)cc2)n1 | 8 | 14
CC(c1ccc(Cl)cc1)N(CC(=O)NC(C)(C#N)C1CC1)C1CC1 (centres undefined) | 0 | -10
CCN(Cc1noc(C2CCC2)n1)C(=O)c1cnc2ccnn2c1C | 7 | 5
Cc1noc(C)c1S(=O)(=O)NC1CC1c1ccccc1 (centres undefined) | 5 | 1
Cc1ccc(C2SCCN2C(=O)c2ccc(Cl)cc2)s1 (centres undefined) | -3 | -2
CN(Cc1ccc2nonc2c1)Cc1nc(-c2ccc3c(c2)OCO3)no1 | 22 | 10
CC(C)NC(=O)NC(=O)CSc1ccc(C(C)(C)C)cc1 | 9 | 4
CN(C)CCCNc1nc(-c2cccs2)nc2sc3c(c12)CCCC3 | 4 | 4
O=C(CSc1nc2sc3c(c2c(=O)n1Cc1ccco1)CCC3)N1CCc2ccccc21 | 0 | -3
CCCCc1ccc(NC(=O)c2cn(CC)nc2OCC)cc1 | 4 | 11
Cn1c(Cn2c(=O)sc3ccccc32)nnc1SCc1ccc(F)cc1 | 7 | 6
NC(=O)COc1ccc(-c2nccn2Cc2ccc(F)cc2)cc1 | 3 | 2
CC1=CC(C)(C)NC(=S)N1c1ccc2ccccc2c1 | 0 | 0

Rewritten field by field: entries from further up.
> CN(Cc1ccc2nonc2c1)Cc1nc(-c2ccc3c(c2)OCO3)no1
- NPYLR7 ag = 22
- NPYLR7 ag max-min = 10

> CC(C)NC(=O)NC(=O)CSc1ccc(C(C)(C)C)cc1
- NPYLR7 ag = 9
- NPYLR7 ag max-min = 4

> CN(C)CCCNc1nc(-c2cccs2)nc2sc3c(c12)CCCC3
- NPYLR7 ag = 4
- NPYLR7 ag max-min = 4

> O=C(CSc1nc2sc3c(c2c(=O)n1Cc1ccco1)CCC3)N1CCc2ccccc21
- NPYLR7 ag = 0
- NPYLR7 ag max-min = -3

Further entries follow:
SMILES | NPYLR7 ag | NPYLR7 ag max-min
CNc1snc(C)c1C(=O)NC1CCc2ccccc21 (centres undefined) | 0 | -2
CCCC[n+]1c(C)sc2ccccc21 | -4 | -1
CCN(CC)C(=O)Oc1ccc2c(ccn2Cc2cc(F)ccc2Br)c1-c1cc(C)cc(C)c1 | 10 | 7
O=S(=O)(c1ccc(N/N=C2\CCSc3ccc(F)cc32)nc1)N1CCCCC1 | 1 | 11
CCOC(=O)C1=C(O)/C(=C\c2ccc3c(c2)OCCO3)SC1=Nc1ccc(Cl)cc1 | 3 | 2
Cc1ccc(S(=O)(=O)NCCn2cncn2)cc1C | 1 | 2
Cc1nc2sccn2c(=O)c1NC(=O)Nc1ccc(F)c(Cl)c1 | 0 | 0
O=C1CN(S(=O)(=O)c2ccc(Cl)cc2)C(c2ccccc2)c2cc(Br)ccc2N1 (centres undefined) | -4 | -5
CCC(=O)C1=C(c2ccc(F)cc2)N(C(=O)CC)n2cnnc2S1 | 5 | 4
CN(C)CCN(Cc1ccccc1)C(=O)c1cc(-c2ccccc2Cl)nc2cc(C(C)(C)C)nn12 | 7 | 4
O=C(NNS(=O)(=O)c1ccc(F)c(F)c1F)c1ccccc1F | 3 | 8
Cc1nccn1CCC1CCCCN1C(=O)c1cc(CC(C)C)on1 (centres undefined) | 12 | -3
COc1ccccc1C(=O)N1CCN(C(C(=O)NCc2cccc(C)c2)C2CCCC2)CC1 (centres undefined) | -3 | 2
CCOC(=O)C1=C(C)NC2=C(C(=O)CC(C)(C)C2)C1c1ccc(Cl)cc1Cl (centres undefined) | -3 | -8
COCCNC(=O)c1ccccc1N1CCC(N)CC1 | -2 | 0
CCCCSc1nnc2c(n1)OC1(CCCCC1)Nc1ccccc1-2 | -11 | -11
CCc1nc2c(OCCc3cccc(OC)c3)cccn2c1N(C)C(=O)c1ccc(OC)cc1 | -6 | -9
COCC(=O)Nn1cnc2c(cnn2C(C)(C)C)c1=O | 5 | 2
CN(C)C(=O)c1ccc(NC(=O)CC(C)(C)C)cc1 | -2 | -6
CN(Cc1ccccc1)C(=O)C1(C)CCN1C(=O)C1(c2ccccc2)CCCC1 (centres undefined) | 8 | 6
c1ccc(-c2noc(COc3ccc4c(c3)OCO4)n2)cc1 | -3 | -3
COc1ccc(-c2nnc(NC(=O)C(NC(=O)c3ccccc3Br)C(C)C)s2)cc1 (centres undefined) | -1 | 9
COc1ccccc1OCC(=O)Nc1nc2cc3c(cc2s1)OCCO3 | 0 | -1
CCC(C)N(Cc1cc(Cl)ccc1OCc1nc(CO)cs1)C(=O)c1cccc(Br)c1 (centres undefined) | 12 | 13

Not all compounds are listed; rates above refer to the full screens.
